ClpP mod – qHTS Assay for Activators of ClpP | ATP-dependent Clp protease proteolytic subunit (Bacillus subtilis (strain 168)), P80244 | purified B. subtilis ClpP, FRET peptide cleavage, 20 min | Potency, µM (highest dose often 57.5 µM), for inactives: at the highest dose activity change, negative = active | 1.9% of 340,000 active | AID 651965, 2013; active = well fitted falling curve with a large enough effect; inconclusive = small, poorly fitted or top-dose-only effect; inactive = no such curve, though single readings can be large or run the other way; note: the source files actives as falling curves though it sought activators and does not explain the sign; nearly all actives have a fitted effect of over 65% in size; many hits overshoot -100%
Target sequence (P80244 whole entry, looked up): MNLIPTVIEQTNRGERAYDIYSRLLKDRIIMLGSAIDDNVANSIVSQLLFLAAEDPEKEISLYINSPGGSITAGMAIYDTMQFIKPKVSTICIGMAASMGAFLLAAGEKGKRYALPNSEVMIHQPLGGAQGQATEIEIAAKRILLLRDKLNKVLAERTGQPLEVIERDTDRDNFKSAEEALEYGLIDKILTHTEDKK
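ClpP 10 microg/mL final, pH 8 Tris/KCl buffer with BSA, glycerol, Tween-20; compound pinned in; FRET-FV substrate; RT 20 min; Ex320/Em430; ΔFRET vs ADEP 5.8 microM, DMSO, no enzyme.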
PINK1 expr mod – PINK1 expression modulation; PINK1 immunofluorescence, high-content cytometry, 24 h; 0.2% of 410,000 active; Potency, µM (titrated, usually from 76.6 µM), for inactives: at the top dose activation (PINK1 increase), most hits filed as activators; active = well fitted activation curve with a large enough effect; inconclusive = small, poorly fitted or top-dose-only effect; inactive = flat fitted curve, though single readings scatter; cell line not stated here;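 note: % of control where 0% means no effect; nearly all actives have a fitted effect of over 65% in size; a mitochondrial uncoupler was the plate control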
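PINK1 protein, normally rapidly degraded, was detected by immunofluorescence after 24 hour compound treatment of a stable cell line. Titration data (5 concentrations) came from laser-scanning cytometry, with CCCP-treated wells as controls.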
An asterisk follows results filed as active; ? = inconclusive. Potency is the fitted concentration of half-maximal effect. An excerpt (hit frequency here may not be typical).

SMILES	ClpP mod	PINK1 expr mod
CCn1c(C)c(C2N3CC4(C)CN2CC(C)(C3)C4=O)c2ccccc21 (stereo not given)	-0.8%	0.0%
COc1ccccc1Cn1cc(C(=O)c2ccc(Cl)cc2)c(=O)c2ccccc21	19%	-0.8%
CCCOC(=O)c1c(NC(=O)c2nc3ncccn3n2)sc(C(=O)OCC)c1C	-6.1%	0.8%
CCc1cccc(OCC(=O)Nc2ccc(S(=O)(=O)Nc3cc(C)nc(C)n3)cc2)c1	-3.1%	-1.0%
CC(C)CCNC(=O)C(=O)Nc1c2c(nn1-c1ccc(Cl)cc1)CSC2	5.2%	12%
O=S1(=O)CC(N2CCN(Cc3ccccc3F)CC2)CN1Cc1cn(Cc2cccc(Cl)c2)nn1 (stereo not given)	-1.0%	-0.5%
CCc1ccc(NC(=O)c2cc3ccccn3n2)cc1	0.5%	1.1%
O=C(CNC(=O)C1CCCCC1)OCC(=O)c1ccccc1	-0.7%	1.5%
O=C(NCCc1ccccc1)c1ccc(CSc2nc3cccnc3n2Cc2ccccc2F)cc1	4.5%	-1.5%
Cc1c(Cl)cccc1NC(=O)CSc1nc2ncccc2o1	11%	-1.3%
CC(C)N(Cc1ccccc1)C(=O)Cn1ncc2c3ccccc3n(Cc3ccccc3)c2c1=O	?	4.9%
COc1ccc(C(=O)n2nc(-c3ccco3)nc2NCc2cccs2)cc1OC	3.0%	1.4%
Cc1ccc(-n2ccnc(NCc3ccccc3)c2=O)cc1C	-10%	0.2%
COc1ccc(CCNC(=O)c2ccc(Nc3nc4ccccc4n4nnnc34)cc2)cc1OC	?	5.1%
Oc1ccc(NCc2ccccc2OCc2ccc(Cl)cc2)cc1	1.2%	5.0%
Fc1ccc(Nc2c3c(nc4nncn24)CCC3)cc1	2.0%	-0.6%
Cc1cccc(C(=O)Nc2ccc(-c3nc4ccccc4s3)c(C)c2)c1	4.0%	8.5%
Cc1ccc(OCC(=O)Nc2ccc(Cl)c(-c3nc4ncccc4o3)c2)c(C)c1	?	2.0%
COc1cc(CNC(=O)c2cc3n(n2)CCCN(Cc2cccc(F)c2)C3=O)cc(OC)c1OC	-1.6%	-0.4%
Clc1ccc(CN2CCC(CNc3ncnc4onc(-c5ccc(Cl)cc5)c34)CC2)cc1	-3.4%	3.7%
CCN(CC)c1ccc2cc(-c3nc(-c4ccccc4)no3)c(=O)oc2c1	-20%	1.1%
CCc1cnc2c(c1SCC(=O)c1ccc(OC)cc1)c(=O)n(C)c(=O)n2C	2.0%	0.9%
COc1ccc(-c2nc(CSCC(=O)N3CCN(c4ccccc4)CC3)c(C)o2)cc1	-5.4%	1.2%
CCc1cccc(C)c1NC(=O)C(C)Sc1nc2c(c(=O)[nH]1)CCCC2 (stereo not given)	-2.4%	0.9%
COc1cccc2sc(N3CCN(C(=O)CS(=O)(=O)c4ccc(Cl)cc4)CC3)nc12	-1.1%	-2.0%
CC(C)NS(=O)(=O)c1ccc2nc(NC(=O)c3cncc(Br)c3)sc2c1	0.4%	0.5%
CCOc1ccccc1CNc1ccc2cc(S(=O)(=O)N3CCC(C)CC3)ccc2n1	4.4%	3.1%
O=C(c1ccc2c(=O)n(Cc3ccco3)c(=S)[nH]c2c1)N1CCCC1	0.0%	1.0%
CCC(=O)N1CCc2cc(S(=O)(=O)CCC(=O)Nc3cc(Cl)ccc3OC)ccc21	-6.5%	-0.7%
C=C1NN(C(C)C(=O)O)C(=O)N1c1ccc(OCc2ccccc2)cc1 (stereo not given)	-0.9%	0.2%
Cc1cc(C)c2c(-n3cccc3)c(C(=O)NCCCN3CCCCC3)sc2n1	-0.5%	0.7%
COc1ccc(CN(C)c2ccc(-c3nc(C)no3)cc2[N+](=O)[O-])cc1	-2.8%	2.9%
O=C(Nc1ccc(F)c(Cl)c1)C1CCN(C(=O)c2ccc(F)cc2)CC1	0.3%	-1.1%
Cc1ccccc1OCC(=O)Nc1sc2c(c1C(=O)OC(C)C)CCCC2	0.9%	1.3%
COc1cc(CN(C(=O)COc2ccc(Br)cc2)c2ccccn2)cc(OC)c1OC	-1.7%	-1.2%
CCOC(=O)c1c(C)[nH]c(CCC(=O)Nc2cc(C)cc(C)c2)c1C	-2.2%	0.7%
CCCN1CCN(CC2=C(C(=O)OCC)C(c3ccc(Cl)cc3)NC(=O)N2)CC1 (stereo not given)	-0.1%	1.6%
CCc1ccc(NS(=O)(=O)c2ccc3[nH]cc(C(=O)N4CCCCCC4)c(=O)c3c2)cc1	-24%	5.0%
Cc1ccc(C)c(Nc2nc3c(S(=O)(=O)c4ccc(C(C)C)cc4)nnn3c3ccsc23)c1	35µM*	1.5%
CC(C)c1ccc(OCC(=O)Nc2c(C(=O)c3ccc(F)cc3)oc3ccccc23)cc1	-14%	3.0%
CCOc1cc(C(=O)Nc2ccc(-c3nnc4n3CCCCC4)cc2)cc(OCC)c1OCC	-2.0%	-0.2%
Cc1ccc(C(C)C)c(OC(C)C(=O)NCC2(N(C)C)CCCCC2)c1 (stereo not given)	-0.1%	1.6%
Cc1ccc(CSC2=Nc3ccccc3C3=NC(CC(=O)NC4CCCCC4)C(=O)N23)c(C)c1 (stereo not given)	5.1%	0.6%
COc1ccc(NC(=O)c2nnn(Cc3nc(-c4cc(OC)c(OC)c(OC)c4)oc3C)c2C)cc1Cl	-3.3%	4.1%
O=C(NC1CCCC1)C1c2ccccc2OCC(=O)N1Cc1ccccn1 (stereo not given)	1.4%	0.4%
O=C(NCCCN1CCN(c2ccccc2F)CC1)C1COc2ccccc2C1 (stereo not given)	-0.1%	0.4%
O=C(CCOc1ccccc1)NO	-1.3%	2.1%
O=C(Nc1cc(Cl)ccc1Cl)c1cc([N+](=O)[O-])cc(Br)c1O	0.7%	0.2%
COc1ccc(CC(=O)NCC(c2cccs2)S(=O)(=O)c2ccc(F)cc2)cc1 (stereo not given)	-1.6%	1.0%
O=S(=O)(c1cc(Cl)cc(Cl)c1)N1CCN(c2nc(-c3cccs3)nc3ccccc23)CC1	4.3%	0.3%
O=C(c1ccccc1)c1ccccc1NC(=O)c1ccccc1C(=O)O	1.5%	0.8%
COc1cccc(NC(=O)C2CCN(S(=O)(=O)c3cccc4nonc34)CC2)c1	-0.2%	2.3%
Cc1ccc2[nH]c(CSc3nnc(NC(=O)c4ccc(Cl)cc4)s3)cc(=O)c2c1	-4.7%	4.0%
CCc1nnc(SCc2cccc(Cl)c2)c2cc3sccc3n12	-12%	0.9%
Cc1ccc(CN2CCSc3ccc(C(=O)NCC(C)c4ccccc4)cc32)cc1 (stereo not given)	4.3%	4.7%
COc1cc(NC(=O)c2nc(-c3ccc(Cl)cc3)n3c2CCCCC3)cc(OC)c1OC	-6.0%	0.8%
COc1ccc(N(C)C(=O)CCn2cnc3onc(-c4ccc(F)cc4)c3c2=O)c(OC)c1	1.5%	0.7%
COc1cccc(/C=c2/[nH]c(=O)/c(=C\c3cccc(OC)c3OC)[nH]c2=O)c1OC	-10%	1.8%
COCCCNC(=O)CSc1nc(-c2ccccc2)[nH]c1-c1ccc(C)cc1	25µM*	0.9%
CCCCN1CCc2nc(N3CCN(C)CC3)ncc2C1	-2.3%	-0.6%

Quoted at random: 3 entries already listed.
SMILES	ClpP mod	PINK1 expr mod
CCCCN1CCc2nc(N3CCN(C)CC3)ncc2C1	-2.3%	-0.6%
COc1ccc(N(C)C(=O)CCn2cnc3onc(-c4ccc(F)cc4)c3c2=O)c(OC)c1	1.5%	0.7%
COc1cc(NC(=O)c2nc(-c3ccc(Cl)cc3)n3c2CCCCC3)cc(OC)c1OC	-6.0%	0.8%

Next part
SMILES	ClpP mod	PINK1 expr mod
C[C@@H]1O[C@H](C2CCCC2)Cc2[nH]c(=S)[nH]c(=O)c21	1.1%	-0.4%
CC1CCN(S(=O)(=O)c2ccc3c(ccc(=O)n3CC(=O)Nc3cccc(F)c3)c2)CC1	-3.1%	-1.5%
COc1ccc(CNC(=O)c2cc3c(=O)n(Cc4ccc(OC)cc4)ccc3nc2C)cc1	108%	5.0%
O=C(NCc1ccccn1)c1nn(-c2ccccc2F)nc1CO	-11%	-0.8%
COc1ccc(Cn2c(SCC(=O)NCc3ccccc3)nc3ccccc32)cc1	-6.5%	-1.9%
COc1ccc(CCNC(=O)c2cc(-c3ccc(Cl)cc3)on2)cc1OC	-5.1%	-0.5%
Cc1cccc(NC(=O)COC(=O)c2ccccc2OCc2cccc(Br)c2)c1	-7.4%	2.8%
CCOc1ccc(-c2nnc(SCC(=O)Oc3ccccc3)o2)cc1	123%	-0.4%
Cc1cc(=O)n2c(C(=O)Nc3ccc(Br)cc3)c(C(=O)Nc3ccccc3)sc2n1	0.7%	0.9%
CCCCOc1ccc(CNC(=O)c2ccc3c(c2)N(C)C(=O)C2CCCCN32)cc1 (stereo not given)	?	6.3%
O=C(CSc1nccn1Cc1ccc(Cl)cc1)Nc1ccc2c(c1)OCCO2	-0.7%	28%
COc1ccccc1CCNC(=O)C(=O)NCC(c1ccco1)S(=O)(=O)c1ccc(F)cc1 (stereo not given)	0.6%	1.2%
Cc1cccc(CN2C(=O)c3ccccc3Sc3ccc(C(=O)NCCc4ccccc4)cc32)c1	-5.9%	-0.1%
CCOc1ccccc1CN1CCc2nc(N3CCN(c4ccccc4F)CC3)ncc2C1	?	1.7%
CC(=O)c1ccc(N2CCN(C(=O)CCc3nnc4n(C)c(=O)c5sccc5n34)CC2)cc1	-5.9%	2.6%
COc1ccc(-c2cc(C(=O)Nc3ccn(Cc4ccc(C)cc4)n3)no2)cc1OC	-2.6%	4.3%
C[C@@H](NC(=O)[C@@H]1CCCN1C(=O)[C@@H]1CCCN1C(=O)c1ccc(Cl)cc1)c1ccccc1	1.7%	0.1%
CC(C)c1nn2c(=O)cc(COC(=O)c3ccc(NC(=O)COc4ccccc4)cc3)nc2s1	-3.8%	2.0%
O=C(COc1ccc(F)cc1)Nc1ccc(Cl)c(-c2nc3ccccc3[nH]2)c1	-25%	2.2%
COc1cccc(C(=O)N(Cc2ccc(C)o2)C2CCS(=O)(=O)C2)c1 (stereo not given)	-1.2%	-1.1%
Cc1cc(C)cc(N(CC(=O)NCc2ccccc2Cl)S(=O)(=O)c2c(C)noc2C)c1	1.2%	3.9%
CCc1ccccc1NC(=O)Nc1ccc2c(c1)N(CC)C(=O)c1ccccc1S2	-1.5%	11%
CCOC(=O)c1ccccc1NC(=O)NCc1c(-n2cccc2)sc2c1CCCC2	?	2.7%
N#Cc1cc2c(=O)n3ccccc3nc2n(-c2nnc(SCc3ccccc3F)s2)c1=O	?	0.8%
CNC(=O)C1CCC(Cn2c(=O)c3sccc3n(CC(=O)N3CCCC3)c2=O)CC1 (stereo not given)	-2.3%	-1.7%
CCOc1ccc(CC(=O)Nc2cccc(-c3nc4cccnc4s3)c2C)cc1	0.0%	0.2%
O=C(NCC(c1cccnc1)N1CCOCC1)C(=O)Nc1ccc(F)cc1 (stereo not given)	-0.9%	0.5%
CC(C)(C)OC(=O)N1CCC(c2c(C(=O)NCc3ccccc3)cnn2-c2cccc(F)c2)CC1	-3.7%	1.2%
CCOc1ccc(NC(=O)CCc2nc3cccnc3n2-c2ccccc2)cc1	1.4%	5.0%
CCOCCCn1c(=N)c(S(=O)(=O)c2ccc(C)cc2)cc2c(=O)n3ccccc3nc21	4.7%	0.4%
COc1ccc(N2CCN(S(=O)(=O)CCNC(=O)COc3ccccc3F)CC2)cc1	-1.2%	-0.8%
O=C(Nc1cccc(C(F)(F)F)c1)c1ccc(F)c(S(=O)(=O)N2CCc3ccccc3C2)c1	?	4.8%
O=c1c(N2CCN(c3cccc(Cl)c3)CC2)csc2ccccc12	-8.7%	-0.1%
COC(=O)[C@@]1(Sc2ccc(OC)cc2)CC(=O)N[C@@H]1c1ccccc1	-4.3%	-1.1%
COc1ccc(CNc2ncnc3c2c(-c2ccccc2)cn3-c2cccc(C)c2)cc1	-4.5%	2.4%
CCc1ccc(NCc2cc3cc4c(cc3n(CC(=O)Nc3ccccc3C)c2=O)OCCO4)cc1	3.7%	-1.0%
Cc1cc(C(=O)N2CCN(c3cccc(C)c3C)CC2)c2c(C)nn(-c3ccccc3)c2n1	?	0.1%
O=C(NCCc1ccc(Cl)cc1)c1cnc2sc(N3CCCCC3)nn2c1=O	-9.4%	1.6%
Cc1ccccc1C(=O)Nc1sc2c(c1C(=O)NCc1ccco1)CCC(C(C)(C)C)C2 (stereo not given)	4.5%	1.3%
COC(=O)c1c(SCC(=O)Nc2ccccc2OC)[nH]c2ccccc2c1=O	-5.6%	?
COc1ccccc1OC(C)C(=O)Nc1c(C(=O)c2ccc(Cl)cc2)oc2ccccc12 (stereo not given)	-0.6%	-0.1%

Sorted by molar mass (low to high): part of the list above
SMILES	ClpP mod	PINK1 expr mod
O=C(NCCc1ccc(Cl)cc1)c1cnc2sc(N3CCCCC3)nn2c1=O	-9.4%	1.6%
COc1ccc(CNc2ncnc3c2c(-c2ccccc2)cn3-c2cccc(C)c2)cc1	-4.5%	2.4%
Cc1cc(C(=O)N2CCN(c3cccc(C)c3C)CC2)c2c(C)nn(-c3ccccc3)c2n1	?	0.1%
COc1ccccc1OC(C)C(=O)Nc1c(C(=O)c2ccc(Cl)cc2)oc2ccccc12 (stereo not given)	-0.6%	-0.1%
CCc1ccc(NCc2cc3cc4c(cc3n(CC(=O)Nc3ccccc3C)c2=O)OCCO4)cc1	3.7%	-1.0%
